Bioassay records from PubChem BioAssay.
VDR inh: blocks the human vitamin D receptor | 0.93% of 400,000 active | AID 504847 | Potency, µM, inactives show max response, negative = inhibition, actives largely listed as inhibitors | VDR-SRC2-3 peptide fluorescence polarization, 2 h | P11473; active = well fitted inhibition curve with a large enough effect; inconclusive = small, poorly fitted or top-dose-only effect, or another doubt; inactive = no such curve, though single readings can be large or run the other way; note: series mostly up to about 120 µM
Target sequence (P11473 whole entry, looked up): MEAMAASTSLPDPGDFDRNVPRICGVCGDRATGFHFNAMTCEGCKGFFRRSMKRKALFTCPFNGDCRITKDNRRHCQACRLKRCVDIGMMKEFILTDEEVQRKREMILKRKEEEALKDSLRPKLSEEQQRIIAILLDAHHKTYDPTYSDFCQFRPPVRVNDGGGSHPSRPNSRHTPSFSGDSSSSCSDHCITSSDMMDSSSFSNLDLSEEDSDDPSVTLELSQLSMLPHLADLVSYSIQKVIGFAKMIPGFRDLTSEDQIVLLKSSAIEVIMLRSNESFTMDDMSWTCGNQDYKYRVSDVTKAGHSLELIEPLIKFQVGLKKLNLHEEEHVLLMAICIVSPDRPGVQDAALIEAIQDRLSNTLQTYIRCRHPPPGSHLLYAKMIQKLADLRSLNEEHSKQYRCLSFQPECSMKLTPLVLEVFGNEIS
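Compounds are added to VDR with labelled SRC2-3 coactivator peptide and held 2 h at room temperature. Inhibition of the VDR–peptide interaction is then read as a change in fluorescence polarization.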
Active calls of the source: *; ? = inconclusive; & = joins results of further samples; ! = a repeat was not active. % is set by controls: 0 for no effect and ±100 for the full control effect; potency is the fitted concentration of half-maximal effect. An excerpt; count on the stated rates, not on these rows.

SMILES	VDR inh
Cc1cc(C(F)F)n2ncc(C(=O)NCc3ccccc3)c2n1	-10%
Cc1c2cnn(-c3ccccc3)c(=O)c2c(C)n1CC(=O)NCc1ccccc1Br	5%
COCc1cc(=O)n2[nH]c(N)nc2n1	-2%
COc1cc(C(=O)n2nc(C)cc2C)cc(OC)c1OC	-5%
COc1ccccc1CNC(=O)Cn1c(-c2cccs2)cc2cc(F)ccc21	9%
COc1ccccc1NC(=O)c1c(NCc2sccc2C)sc2c1CCCCC2	-15%
O=C(Nc1nnc(C(F)(F)F)s1)c1ccc(Br)s1	-8%
CC(C)C(Sc1nc(-c2ccccc2)cc(-c2ccccc2)c1C#N)C(=O)O (configuration not stated)	-7%
O=C(NCC1CCN(Cc2ccccc2Cl)CC1)c1cc2ccc3cccnc3c2[nH]1	4%
CSCCC(NC(=O)c1ccc(Cl)cc1)C(=O)OCC(C)=O (configuration not stated)	-15%
COc1cccc(/C=C2\SC(=S)N(C(Cc3ccccc3)C(=O)O)C2=O)c1 (configuration not stated)	?
N/C(CS(=O)(=O)c1ccc(F)cc1)=N\O	5%
Cc1cccc(-c2noc(CCCC(=O)NC3CCCCC3)n2)c1	-6%
COc1ccc(NC(=O)CSc2nnc(-c3cccs3)n2N)cc1S(N)(=O)=O	7%
Cc1noc(C)c1S(=O)(=O)N1CCCC(C(=O)NCCc2ccccc2)C1 (configuration not stated)	1%
C=CCOc1c(CCC)cc(CCC)cc1C(N)=O	-1%
Cc1cc(C)c(NC(=O)COC(=O)c2cc([N+](=O)[O-])ccc2N2CCOCC2)c(C)c1	-9%
COc1ccccc1NC(=O)COC(=O)c1cnc(C)cn1	-12%
O=C(CNC(=O)c1ccc(F)cc1)Nc1ccccc1C(F)(F)F	0%
Oc1cccc2ccc(/C=C/c3ccc(Br)s3)nc12	-11%
Nc1cc(N)nc(SCC(=O)c2ccccc2)n1	-7%
Cc1csc(SCC(=O)c2cc(C)n(Cc3cccs3)c2C)n1	4%
Cc1ccccc1NC(=O)C1C2/C=C\CCCCC21 (configuration not stated)	-10%
Cc1c(C(=O)N2CCC(C)CC2)c(S(=O)(=O)Nc2cccc(C(F)(F)F)c2)c(C)n1C	6%
S=C(Nc1cccnc1)Nc1cccc2cnccc12	?
Cc1ccc(NC2=C(Cl)C(=O)N(C3CCCCC3)C2=O)cc1	-16%
CCN(CC(=O)Nc1c(F)cccc1F)C(=O)Cc1ccc(OC)c(S(=O)(=O)N2CCOCC2)c1	13%
COCCCNc1nc2ccccc2nc1NS(=O)(=O)c1ccc(C)cc1C	-5%
C=CCN=C1SC(CC)C(=O)N1S(=O)(=O)c1ccc(C)cc1 (configuration not stated)	2%
COc1ccc(CNC(=O)c2ccc(CS(=O)Cc3ccc(Cl)cc3)o2)cc1 (configuration not stated)	-5%
CC(C)(C)OC(=O)N1CCC(c2c(C(=O)N3CCN(C(=O)c4ccco4)CC3)cnn2-c2ccccc2Cl)CC1	-1%
Cc1cccc(NC(=O)c2ccc3ccccc3n2)n1	-4%
CCN(CC)S(=O)(=O)c1ccc2c(c1)N(CC(=O)N1CCN(c3cccc(Cl)c3)CC1)C(=O)CO2	1%
CN(C)S(=O)(=O)Oc1ccc(Cl)cc1C(=O)Nc1cccc(C(F)(F)F)c1	1%
COc1ccc(Nc2nc(NCc3ccco3)nc(N/N=C/c3ccccc3Cl)n2)cc1	-11%
COc1ccc(-c2c(C(F)(F)F)[nH]n3c(=O)cc(-c4ccccc4)nc23)cc1	-3%
CCOc1ccc(NS(=O)(=O)c2cnc(Cl)c(Cl)c2)cc1	0%
Cc1ccccc1CN1CCC(n2nccc2NC(=O)CCCc2ccccc2)CC1	-10%
CC(C)Oc1ccc(C(=O)N2CCN(CCc3ccccn3)CC2)cc1	-4%
Cn1c(C(=O)NC2CCCCC2)cc2sccc21	-7%

An excerpt of these results, with values ahead of the structure.
VDR inh,Molecule
1%,CN(C)S(=O)(=O)Oc1ccc(Cl)cc1C(=O)Nc1cccc(C(F)(F)F)c1
-11%,COc1ccc(Nc2nc(NCc3ccco3)nc(N/N=C/c3ccccc3Cl)n2)cc1
-3%,COc1ccc(-c2c(C(F)(F)F)[nH]n3c(=O)cc(-c4ccccc4)nc23)cc1
0%,CCOc1ccc(NS(=O)(=O)c2cnc(Cl)c(Cl)c2)cc1
-10%,Cc1ccccc1CN1CCC(n2nccc2NC(=O)CCCc2ccccc2)CC1
-4%,CC(C)Oc1ccc(C(=O)N2CCN(CCc3ccccn3)CC2)cc1
-7%,Cn1c(C(=O)NC2CCCCC2)cc2sccc21

(list continues)
SMILES	VDR inh
CCCN(CCC)Cc1c(C(=O)N/N=C/c2ccoc2)nnn1-c1nonc1N	14%
O=C(N/N=C/c1cccc([N+](=O)[O-])c1O)c1cccs1	-1%
Cc1ccc(S(=O)(=O)N2CCC(=O)N(CCOCc3ccc(Cl)cc3)CC2)cc1	11%
C=CCc1ccccc1OCC(=O)O	-9%
O=C(N/N=C/c1ccc(Br)s1)Nc1ccccc1	-13%
COc1ccc(CN(C)C(=O)c2cnc(OC)cc2C(F)(F)F)c(OC)c1	-2%
Cc1ccccc1C(=O)Nc1ccc(Br)cn1	7%
Cc1cc(C)c(S(=O)(=O)Nc2ccc(-c3ccc(N4CCC(C)CC4)nn3)cc2)cc1C	15%
COC(=O)Nc1ccc2ccc3c(NC(=O)OC)ccc4ccc1c2c43	14%
CC(NC(=S)Nc1ccc(OC(F)F)c(Cl)c1)C(C)(C)C (configuration not stated)	-19%
Cc1ccc2nc(SCc3nnc(-c4ccccc4[N+](=O)[O-])o3)c(C#N)cc2c1	8%
C/C(=N\NC(=O)c1cccc(S(=O)(=O)N2CCOCC2)c1)c1ccco1	5%
CCCn1c(SCC(=O)c2ccc3c(c2)OCCO3)n[nH]c1=O	-12%
CSc1ccc(C2NC(=O)CCC2[N+](=O)[O-])cc1 (configuration not stated)	-4%
COc1ccc(NC(=O)CCCc2nnc3n(C)c(=O)c4sccc4n23)cc1	-11%
O=C(Nc1ccc(F)c(Cl)c1)c1ccccc1	-19%
Cc1ccc2nc(SCC(=O)c3c(N)n(C4CC4)c(=O)[nH]c3=O)[nH]c2c1	19%
COc1ccc(OC)c([C@H](O)CNC(=O)CN)c1	6%
CC(C)COC(=O)Cn1nnc2sc(-c3ccccc3)cc2c1=O	8%
O=C(CN(c1ccc(Cl)c(C(F)(F)F)c1)S(=O)(=O)c1ccccc1)N1CCc2ccccc2C1	5%
CCc1ccc(NC(=O)Cn2cc(S(=O)(=O)c3ccc(F)cc3)c(=O)c3cc(OC)ccc32)cc1	-15%
Cc1c(NS(=O)(=O)c2cccc(C(=O)OCC(=O)N(C)C3CCCCC3)c2)c(=O)n(-c2ccccc2)n1C	2%
Cc1ccc(CNC(=O)C2CCN(S(=O)(=O)N3CCCCC3)CC2)cc1	-10%&18%
Cc1cc(C)cc(C(=O)NC(CC(N)=O)c2ccc(N3CCC(N4CCCCC4)CC3)c([N+](=O)[O-])c2)c1 (configuration not stated)	2%
Cc1ccc2nc(Nc3cccc(Cl)c3C)c(-n3nc(C)cc3C)nc2c1	-15%
Cc1nn(CC(=O)N/N=C/c2ccc(F)cc2)c(C)c1[N+](=O)[O-]	3%
Cc1ccc(C)c(N2CCN(C(=O)c3ccc(CS(=O)(=O)c4ccccc4C)o3)CC2)c1	8%
Cn1c(CNC(=O)OC(C)(C)C)nnc1SCc1c(Cl)cccc1Cl	-21%
CNC(=O)C(=O)NCCCN1CCOCC1	-3%
Cc1ccc2c(c1)cc(CN(CCc1ccccc1)C(=O)N1CCOCC1)c1nnnn12	-5%

3 entries out of the list above, arranged by the value under VDR inh, falling.
SMILES	VDR inh
Cc1cc(C)c(S(=O)(=O)Nc2ccc(-c3ccc(N4CCC(C)CC4)nn3)cc2)cc1C	15%
O=C(CN(c1ccc(Cl)c(C(F)(F)F)c1)S(=O)(=O)c1ccccc1)N1CCc2ccccc2C1	5%
COc1ccc(CNC(=O)c2ccc(CS(=O)Cc3ccc(Cl)cc3)o2)cc1 (configuration not stated)	-5%

The list goes on.
SMILES	VDR inh
COc1ccc2c(c1)C(=O)[C@H](OC(=O)NS(=O)(=O)c1ccc(F)cc1)[C@@H](c1ccc(OC)c(Br)c1)O2	2%
CCOc1ccc(C2/C(=C(\O)c3ccc4c(c3)OCCO4)C(=O)C(=O)N2CCCN2CCOCC2)cc1OC (configuration not stated)	-12%
COc1ccccc1NC(=O)CSc1nc2sc3c(c2c(=O)n1-c1ccccc1)CCN(C)C3	4%
CCS(=O)(=O)Nc1ccc(C2=NN(C(=O)c3ccco3)C(c3cccs3)C2)cc1 (configuration not stated)	-6%
CC/C=C\C/C=C\C/C=C\C/C=C\C/C=C\C/C=C\CCC(=O)NCCc1ccc(O)c(O)c1	1%
Cn1c(N)c(S(=O)(=O)N2CCN(c3cccc(Cl)c3)CC2)c(=O)n(C)c1=O	3%
N/C(=N\OC(=O)CCCc1ccccc1)c1ccccn1	-5%
NC(=O)[C@@H]1CCCN1C(=O)C(Cc1cnc[nH]1)NC(=O)C1CCC(=O)N1 (some centres not stated)	4%
CC[C@H]1c2[nH]c3ccccc3c2C[C@H]2C(=O)N(c3ccc(F)cc3)C(=O)N21	-29%
CCCCc1ccc(NC(=O)Nc2cccnc2)cc1	2%
O=C(CC12CC3CC(CC(C3)C1)C2)N1CCOCC1	0%
O=C(O)Cn1nc(C(F)(F)F)c2c1CCCC2	21%
COc1cccc(CN2CCNC(=O)C2CC(=O)NCCn2nc(C)cc2C)c1OC (configuration not stated)	11%
Fc1ccc(OCc2nn3cnnc3s2)cc1	-6%
COc1cc2c(cc1OC)CN(C(=O)CNC(=O)c1ccc(OC(F)F)cc1)CC2	10%
CCN(CC)CCCN1C=C2C(=O)C(C)(OC(=O)C3CCCC3)C(=O)C(c3ccccc3)=C2C=C1CCCC(=O)OC (configuration not stated)	-15%
COC(=O)c1cn(-c2ccc(Cl)cc2)c(=O)c2ccccc12	-6%
CCCN(C(=O)c1cc(S(=O)(=O)N2CCc3ccccc32)cn1C)c1ccc(OCC)cc1	9%
CN(c1ccc(O)cc1)c1nc(-c2cccnc2)cs1	-3%
CCc1cc2c(=O)c(-c3nc4ccccc4[nH]3)coc2cc1OC(=O)N1CCOCC1	12%
CN(C)c1ccc(/C=C(\C#N)c2nc3ccccc3c(=O)[nH]2)cc1	?
COc1ccc(C(=O)NCC(c2ccco2)N2CCCC2)cc1S(=O)(=O)N1CCCCC1C (configuration not stated)	11%
CCN1CCN(c2ccc(NC(=O)c3cc(OC)c(OC)c(OC)c3)cc2)CC1	-20%
COc1ccc(OC)c(NC(=O)CN2c3cccc4cccc(c34)S2(=O)=O)c1	1%
Cc1ccc(NS(=O)(=O)c2ccc(N3C(=O)CCC3=O)cc2)cc1	-2%
CCn1c(SCc2nc3ccccc3s2)nc2cc(S(=O)(=O)N3CCOCC3)ccc21	6%
Cc1cc(C)n(CC(O)COc2ccc(C(C)(C)C)cc2)n1 (configuration not stated)	6%
COc1cc(/C=C(\C#N)c2nc3ccccc3n2C)cc(OC)c1OC	-11%
O=C(Nc1ccc2oc(-c3cccnc3)nc2c1)c1cccnc1	14%
Cc1ccc(S(=O)(=O)N2C(=O)CCC2C(=O)O/N=C(\N)c2ccc([N+](=O)[O-])cc2)cc1 (configuration not stated)	-3%

Part of the list above in another layout:
N/C(CS(=O)(=O)c1ccc(F)cc1)=N\O
- VDR inh: 5%

Cc1cccc(-c2noc(CCCC(=O)NC3CCCCC3)n2)c1
- VDR inh: -6%

Remaining list, next part.
SMILES	VDR inh
Cc1nn(-c2ccc(Cl)cc2)c2[nH]c(CCl)cc(=O)c12	2%
CCOC(=O)c1ccc(NC(=O)CSc2nnc(CC)o2)cc1	8%
COc1ccc(-c2cc(C(=O)Nc3cccnc3Cl)no2)cc1	6%
O=C(NCc1ccco1)c1ccc(OCC2CCCO2)cc1 (configuration not stated)	10%
CC1=C(C(=O)OCCC(C)C)C(c2ccc3c(c2)OCO3)NC(=O)N1 (configuration not stated)	-4%
Cc1ccc(SCC2=NNC(=O)C2)cc1	-10%
COc1ccc(NC(=O)/C(=C\c2ccncc2)NC(=O)c2ccccc2)cc1	-10%
CCOC(=O)c1cc(C#N)c(Nc2ccccc2OC)nc1C(F)(F)F	7%
CN(C)c1ccc(N2C(=NC(=O)CC3CCCCC3)SC3CS(=O)(=O)CC32)cc1 (configuration not stated)	-12%
Cc1ccc(-c2csc(SCC(=O)c3c(N)n(C4CC4)c(=O)[nH]c3=O)n2)cc1	-21%
COc1cc(OC)cc(C(=O)NC2CC3CCC(C2)N3Cc2ccco2)c1 (configuration not stated)	-7%
O=S(Cc1ccccc1)c1ccccc1 (configuration not stated)	-26%
O=C(c1ccc(F)cc1)C1CCN(C(=O)Nc2ccc(F)cc2F)CC1	-14%
COc1ccc(NC(=O)CN(c2cccc(C)c2C)S(=O)(=O)c2ccccc2)cc1OC	-7%
COc1ccc(NC(=O)CC(C(=O)O)N2CCCCC2)cc1 (configuration not stated)	4%
CCCC[C@@]1(C2CCCC2)Cc2cc(OCC(=O)O)c(Cl)c(Cl)c2C1=O	50µM*!
COCCCNC(=O)CC(NS(=O)(=O)c1ccc(OC)cc1)c1ccc(OC)cc1 (configuration not stated)	-2%
O=C(O)CCc1ccc(-c2ccccc2)n1NC(=O)c1cccs1	12%
Cc1ccc(S(=O)(=O)c2c(O)cc(C)c(NS(=O)(=O)c3ccc(Br)cc3)c2C)cc1	12%
CCCN(CCC)CCNc1c(N2CCN(C(=O)OCC)CC2)c(=O)c1=O	3%
COc1ccccc1NS(=O)(=O)c1cccc(C(=O)NCC(c2cccs2)N(C)C)c1 (configuration not stated)	-1%
COc1cc(C(=O)Nc2cccc(C)c2C)c(Br)c(OC)c1OC	-10%
Cc1nnc(NC(=O)C2CCN(S(=O)(=O)c3ccc(F)c(Cl)c3)CC2)o1	9%
CC(C)CCN(CCC(C)C)C(=O)Cc1c(O)c2ccccc2[nH]c1=O	4%
COc1ccc(OC)c(NC(=O)CSC2=C(C#N)C(c3ccco3)C3=C(CCCC3=O)N2)c1 (configuration not stated)	6%
CCCCn1nnc(NC(=O)c2ccco2)n1	?
CCCN1CNc2c(c(=O)[nH]c(=S)n2CCc2cc(C)ccc2C)C1	3%
CCNc1nc(NCC)nc(OCCOC(=O)c2ccccc2)n1	6%
